# Screens deposited in PubChem by several laboratories.
# RecA intein inh: Mtb RecA intein splicing inhibition | cell-free RecA intein splicing, fluorescence | 0.75% of 290,000 active | inhibition, %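 (about 9 µM by stock and volumes)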 | P9WHJ3; in the data active means inhibition above about 30%; inconclusive means no clear call, values can overlap the other calls;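 further: 0% = vehicle wells and 100% = reference inhibitor control wells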
# Target sequence (P9WHJ3 whole entry, looked up): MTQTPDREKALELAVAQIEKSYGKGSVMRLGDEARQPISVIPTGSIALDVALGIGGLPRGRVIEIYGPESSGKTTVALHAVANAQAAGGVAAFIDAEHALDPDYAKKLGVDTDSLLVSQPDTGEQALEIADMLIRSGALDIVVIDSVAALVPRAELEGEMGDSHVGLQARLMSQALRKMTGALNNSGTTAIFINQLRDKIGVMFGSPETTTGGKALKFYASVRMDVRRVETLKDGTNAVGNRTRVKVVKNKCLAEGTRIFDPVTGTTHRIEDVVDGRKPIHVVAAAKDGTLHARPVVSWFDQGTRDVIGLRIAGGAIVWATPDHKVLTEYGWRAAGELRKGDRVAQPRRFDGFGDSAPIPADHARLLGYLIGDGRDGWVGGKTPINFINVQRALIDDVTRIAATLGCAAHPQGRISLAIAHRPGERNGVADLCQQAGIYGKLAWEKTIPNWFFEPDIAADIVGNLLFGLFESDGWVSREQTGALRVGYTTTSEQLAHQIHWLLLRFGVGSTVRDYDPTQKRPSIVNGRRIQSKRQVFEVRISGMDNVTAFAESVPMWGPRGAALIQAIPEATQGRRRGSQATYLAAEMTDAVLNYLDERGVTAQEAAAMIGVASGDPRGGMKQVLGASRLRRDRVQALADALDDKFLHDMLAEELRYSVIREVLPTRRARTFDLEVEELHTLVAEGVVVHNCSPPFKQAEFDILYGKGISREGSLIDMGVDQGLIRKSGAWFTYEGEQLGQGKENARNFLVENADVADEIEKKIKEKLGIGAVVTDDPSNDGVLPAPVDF
# YopH PTP inh: inhibitors of Yersinia enterocolitica YopH tyrosine phosphatase; fluorescence Ex485/Em525; inhibition, %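 (about 10 µM by stock and volumes)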; 0.16% of 140,000 active;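 active means inhibition of 50% or more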;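 further: controls were vehicle for no effect and minimum signal wells for full effect; inactives centre near -20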
# Arbovirus inh: antivirals against arbovirus infection. inhibition, % at 10 µM. arbovirus infection cell-based antiviral screen. AID 1251. 0.37% of 200,000 active;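 active means inhibition from about 30%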;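 further: bluetongue infection of BSR cells; cell survival read as ATP light after 72 h; 0% = infected wells without compound and 100% = uninfected wells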
# Mtb H37Rv: M. tuberculosis H37Rv growth inhibitors, H37Rv strain (AID 1626). 0.95% of 220,000 active. M. tuberculosis H37Rv growth inhibition; higher % means a stronger effect. inhibition, % at 10 µM; hits with a dose series show IC50 in µM;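 active means confirmed in a dose series; inconclusive means inhibition above 80% but not taken into the dose series; inactive means below 80% or under 30% at every dose of the series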;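 further: bacteria incubated seven days before Alamar blue readout; 0% = bacteria only wells and 100% = bacteria with antibiotic wells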
# Mtb betalactam: beta-lactam sensitization of Mtb H37Rv; M. tuberculosis H37Rv growth with meropenem, percent inhibition; hits of this screen are not shown here; inhibition, % at 25 µM; 0.27% of 330,000 active;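 active means about 74% or more and at least 40 points above the plate without the antibiotic, then above 30% in a dose series; inconclusive means first-round hits that could not be retested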;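 further: growth measured after seven days incubation then overnight dye step; 0% = bacteria only wells and 100% = bacteria with antibiotic; twin plates without the antibiotic show which effects depend on it; some results filed as inactive read as strong as hits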
# Arbovirus inh repeat: recorded beside Arbovirus inh, whose call it bears; inhibition, %; measured here: 10K subset replicate screen; many hits read low in the repeat;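 first of two repeat runs on a subset; 0% = infected and 100% = uninfected wells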
# Starred values were filed as active, the others as inactive; ? = inconclusive; . = no result given.
SMILES,RecA intein inh,YopH PTP inh,Arbovirus inh,Mtb H37Rv,Mtb betalactam,others
CCOc1ccc(NC(=O)CCNS(=O)(=O)c2cccc3nsnc23)cc1,-2.2,.,.,.,-6,
CN(Cc1nc(C(c2ccccc2)c2ccccc2)no1)CC1COCCO1 (centres undefined),1.6,.,4,9%,-8,
COc1ccc(Cl)cc1NC(=O)C[n+]1cccc(C)c1,-1.2,.,.,.,8,
CC1(C)C2CCC(C2)C1(C)NC(=O)CNC1CCCCC1 (centres undefined),-3.1,.,12,2%,-12,
CCOC(=O)CCC(NC(=O)c1ccccc1C(=O)NC(CCC(=O)OCC)C(=O)OCC)C(=O)OCC (centres undefined),0.8,.,18,-13%,-3,
Cc1nn(-c2ccccc2)c(C)c1C(=O)NCc1cccs1,-0.6,-27,5,2%,-7,
O=C(Nc1ccn(Cc2ccccc2F)n1)c1ccc(COc2cc(Cl)ccc2Cl)o1,-0.1,-7,-3,10%,-16,
O=C(Nc1nc2c(ccc3ccccc32)s1)c1ccco1,8.4,-16,5,-2%,?,
Cc1ccc(-c2cc(C(F)(F)F)c(C#N)c(SCC(=O)O)n2)cc1,-1.7,.,8,6%,-5,
O=C(NCCCSc1ccccc1)c1ccc(=O)[nH]c1,0.8,.,.,.,7,
Cc1ccc([N+](=O)[O-])cc1NC(=O)CSc1nncn1-c1ccccn1,14,.,.,.,-9,
COC(=O)C1C(=O)C=C(Nc2ccc(F)cc2F)CC1c1ccccc1 (centres undefined),-7.2,-16,5,-5%,-7,
Cc1ccc(OCCOCCOc2cccc3cccnc23)c(Br)c1,-0.1,-24,-7,2%,0,
CC1(OC(=O)C2CCCC2)C(=O)C=C2C=C(c3ccsc3)N(CCCCO)C=C2C1=O (centres undefined),9.8,.,.,-10%,0,
COc1ccc(-c2nnc3ccc(SCC(=O)NCC4CCCO4)nn23)cc1 (centres undefined),-1.0,-18,5,-3%,1,
O=C(NCCOc1ccccc1)C1Nc2ccc(C(F)(F)F)cc2C2c3ccccc3CC12 (centres undefined),5.5,.,.,-5%,-10,
O=C(CSc1ccc2nnc(CCNC(=O)c3ccccc3)n2n1)Nc1ccccc1F,0.8,.,4,3%,-7,
COc1ccc2ncc(S(=O)(=O)c3ccccc3)c(N3CCN(c4ccccc4)CC3)c2c1,5.0,-24,1,14%,-3,
Cc1nnc(Sc2cc(NCCO)c([N+](=O)[O-])c3nonc23)s1,93*,.,-39,-7%,.,
COc1cc(C2C(C(=O)Nc3ccc(F)cc3)=C(C)Nc3nc(CCCO)nn32)cc(OC)c1OC (centres undefined),1.4,-11,4,-6%,-8,Arbovirus inh repeat=3
Brc1cccc(OCCN2CCc3ccccc3C2)c1,4.3,.,.,.,-30,
CCOC(=O)N1CCN(CC(=O)c2ccc3c(c2)CCN3)CC1,-2.5,12,-6,-5%,-6,
CCOc1ccc(OCc2ccc(C(=O)NC(C)C)o2)cc1,0.2,.,.,.,0,
Cc1cc(Cl)c(OCCOCCN2CCNCC2)c(Cl)c1,-0.5,.,.,.,-3,

# Some of these compounds in order of length of the SMILES, ascending:
SMILES,RecA intein inh,YopH PTP inh,Arbovirus inh,Mtb H37Rv,Mtb betalactam,others
CCOc1ccc(OCc2ccc(C(=O)NC(C)C)o2)cc1,0.2,.,.,.,0,
Cc1nnc(Sc2cc(NCCO)c([N+](=O)[O-])c3nonc23)s1,93*,.,-39,-7%,.,
O=C(CSc1ccc2nnc(CCNC(=O)c3ccccc3)n2n1)Nc1ccccc1F,0.8,.,4,3%,-7,

# Next records:
SMILES,RecA intein inh,YopH PTP inh,Arbovirus inh,Mtb H37Rv,Mtb betalactam,others
CCOc1ccc(CCNC(=O)COC(=O)CCS(=O)(=O)c2ccc(C)cc2)cc1OCC,-2.0,.,.,.,-12,
CSc1nc2nc3c(cc2c(=O)[nH]1)C(O)Oc1ccc(C)cc1-3 (centres undefined),-2.6,.,3,-4%,15,
c1ccc2c(c1)CNc1ccccc1O2,3.0,-15,-2,-4%,1,
Nc1ccc(C(=O)N2CCN(S(=O)(=O)c3ccc(Cl)s3)CC2)cc1[N+](=O)[O-],8.4,.,.,.,-9,
NC(=NC(=O)c1ccc(OCC(F)(F)F)nc1)c1ccc(Cl)cc1,-0.5,.,.,.,-4,
Cc1occc1C(=O)NNC(=O)CN1C(=O)NC(C)(c2ccccc2)C1=O (centres undefined),-2.9,.,.,.,2,
COc1cc(C(=S)N2CCOCC2)ccc1OC(=O)c1ccccc1C,3.2,.,.,.,-11,
CCn1c(SCC(=O)N2CCCC2)nc2c(c1=O)SC(C)C2 (centres undefined),7.9,-25,2,-1%,-3,Arbovirus inh repeat=4
C#CC1(NC(=O)NCCCC)CCCCC1,-4.3,.,-1,-4%,-6,
COC(=O)c1noc(C)c1-c1ccnn1C(=O)c1ccc(C)cc1,1.8,.,.,3%,-2,
COc1ccc(-c2nn(-c3ccccc3)cc2C(=O)Nc2nccs2)cc1OC,7.3,-11,-27,?,95,
O=C(N/N=C/c1cccc(Cl)c1)C1CCCC1,0.8,.,.,.,-8,
COc1cccc(/C=C/C(=O)NCCc2ccc(OC)c(OC)c2)c1,3.0,-33,-2,-16%,-10,
CC1=NN(c2ccccc2)C(=O)C1N=Nc1ccc(C)cc1 (centres undefined),0.5,.,0,10%,-6,
O=C(/C=C/c1ccc(Cl)c([N+](=O)[O-])c1)Nc1ccc(N2CCCC2)c(Cl)c1,0.0,-28,-16,1%,4,
CS(=O)(=O)N(CC(=O)NCc1ccco1)c1ccc(Cl)c(C(F)(F)F)c1,2.7,-34,-1,2%,2,Arbovirus inh repeat=0
COc1ccc(OCCCC(=O)NCc2ccco2)cc1,-2.4,-10,6,10%,2,
O=C(NC(=S)Nc1ccc(S(=O)(=O)N2CCOCC2)cc1)c1ccccc1[N+](=O)[O-],-0.1,.,0,-9%,2,
CCCCOn1c(C)c(C(=O)OCC)c2c3no[n+]([O-])c3ccc21,1.7,-7,11,-4%,4,
COC(=O)c1ccc(C(=O)NC(=S)Nc2nc3c(s2)CC(C)CC3)cc1 (centres undefined),-1.2,-29,-5,69%,4,
CCOC(=O)CC(NC(=O)c1ccco1)c1ccc(C)cc1 (centres undefined),-15,-14,1,3%,-6,
Cc1nc2c(sc3nc(N4CCOCC4)c4c(c32)CC(C)(C)OC4)c(-c2ccc(Cl)cc2)c1C(=O)O,-1.0,.,.,?,76,
CC(C)C(c1nnnn1Cc1ccccc1)N(Cc1ccco1)Cc1cccs1 (centres undefined),12,-8,-19,6%,0,
Cc1ccc(C(=O)NCC(=O)Nc2ncccc2C)s1,-0.3,.,.,.,-15,

# 3 entries drawn at random from the list so far, as already listed:
SMILES,RecA intein inh,YopH PTP inh,Arbovirus inh,Mtb H37Rv,Mtb betalactam,others
Cc1nc2c(sc3nc(N4CCOCC4)c4c(c32)CC(C)(C)OC4)c(-c2ccc(Cl)cc2)c1C(=O)O,-1.0,.,.,?,76,
CC1=NN(c2ccccc2)C(=O)C1N=Nc1ccc(C)cc1 (centres undefined),0.5,.,0,10%,-6,
COc1cccc(/C=C/C(=O)NCCc2ccc(OC)c(OC)c2)c1,3.0,-33,-2,-16%,-10,

# Other records follow:
SMILES,RecA intein inh,YopH PTP inh,Arbovirus inh,Mtb H37Rv,Mtb betalactam,others
Clc1ccc(-c2ncc3ccccn23)c(Cl)c1,4.3,.,-4,4%,-2,
COc1ccc(NC(=S)N2CCc3ccccc3C2)cc1OC,-2.5,.,-2,-3%,-2,
CN(C)c1nc(-c2ccc([N+](=O)[O-])cc2)cs1,5.4,-15,5,3%,-4,
Cc1ccc(NC(=O)c2c([N+](=O)[O-])c(C(C)(C)C)nn2C)cc1,0.1,-12,12,12%,6,
CCCCNC(=O)CCCCC(=O)N/N=C/c1cccc(Cl)c1,0.3,-33,1,-6%,-8,
COC(=O)c1cc(S(=O)(=O)N2CCOCC2)c(N2CCOCC2)cc1N1CCOCC1,.,-40,-1,1%,.,
CC(C)(C)NC(=O)COC(=O)c1cc(Cl)ccc1[N+](=O)[O-],0.2,.,4,-1%,0,
Nc1c(C(=O)NCCN2CCOCC2)c2nc3ccccc3nc2n1-c1ccc2c(c1)OCO2,2.1,-25,-4,0%,1,
CC(=O)CC(=O)Nc1ccc2ccccc2c1,0.4,.,.,14µM*,83,
CC(=O)Nc1ccc(NC(=O)Nc2cccc(Cl)c2)cc1,-4.9,.,.,.,7,
CC1Oc2ccccc2N(CC(=O)NCCc2ccccc2)C1=O (centres undefined),0.4,0,-2,-3%,-5,
CC(=O)Nc1nn(C)c2nc(C)cc(C)c12,.,.,7,4%,-4,
O=C(Cn1cnc2c(nnn2Cc2ccc(Cl)cc2)c1=O)NCc1ccco1,1.8,5,-23,-5%,-10,
Cc1cc(C(=O)COc2ncnc3sccc23)c(C)n1C1CC1,-1.6,-37,7,-3%,9,
COc1ccc(NC(=O)c2noc3c2CCC3)cc1,0.2,-1,0,-5%,1,
CC(C)C(=O)Nc1ccc(O)c(-c2csc(N)n2)c1,-6.4,.,-10,-1%,-4,
C/C(=N/OC(=O)c1ccc(Br)cc1)c1ccc(C)cc1,2.4,.,.,.,15,
c1coc(-c2ccnc(-n3cccc3)n2)c1,-1.3,.,0,6%,5,
CCCCOP(=O)(OCCCC)C(O)c1ccc(Br)cc1 (centres undefined),-0.2,-18,7,1%,1,
CCC(C)NCCOCCOc1ccc(Cl)c2ccccc12 (centres undefined),-0.5,.,-29,5%,.,
COc1cccc(CN2C(=O)c3ccccc3C2C(=O)NCC2CCCO2)c1 (centres undefined),-0.2,-20,1,1%,-5,
COc1ccc([N+](=O)[O-])cc1NC(=O)c1ccco1,-0.4,.,-10,-2%,0,
COc1ccc(NS(=O)(=O)c2ccc(OC)c(NC(=O)CCC3CCCCC3)c2)cc1,0.3,-32,-2,-2%,-2,
COC(=O)c1cc(S(=O)(=O)N2CCCCC2)c[nH]1,3.9,.,.,.,-9,
COc1ccc(C2Nc3ccccc3NC3=C2C(=O)CC(C)(C)C3)cc1OC (centres undefined),2.4,.,.,.,-1,
Cc1cccc(C)c1NC(=O)NCCCN1CCN(c2ccccc2)CC1,0.5,.,2,1%,-5,
COC(=O)c1ccc(CSc2nnc(-c3ccncc3)n2Cc2ccccc2)o1,5.0,-35,6,-11%,-15,
COc1cccc(CN2CCN(Cc3ccc(O)c(OC)c3)CC2CCO)c1 (centres undefined),1.5,.,4,-6%,-4,
[O-][n+]1onc2c1CCc1nnc(-c3ccccc3)cc1-2,-0.2,-13,-8,-7%,2,
Cc1csc(C(C)NC(=O)c2ccc(OC3CCN(CCc4ccccc4)CC3)cc2)n1 (centres undefined),-0.4,.,.,.,5,
Cc1cccnc1NC(=S)NC(=O)c1cccs1,-0.8,-29,-2,-6%,-4,
CC(C)CN(CC(C)C)S(=O)(=O)N1CCC(C(=O)NCc2ccco2)CC1,-1.6,.,8,0%,-4,
Cc1noc(C)c1C(=O)OCC(=O)Nc1ccccc1Oc1ccccc1,-1.7,-3,-1,2%,0,
N/C(=N\N=C\c1ccco1)SC1CC(=O)N(c2ccc(C(=O)O)cc2)C1=O (centres undefined),-0.2,.,6,6%,4,
COc1ccc(C)cc1NS(=O)(=O)c1cc(C)ccc1C,1.0,-7,-1,1%,-8,
COc1ccc(C2CCCN2C(=O)Nc2ccc(C)c(C)c2)cc1OC (centres undefined),0.3,-4,-9,7%,1,
CCOCCOC(=O)c1[nH]c2c(c1C)C(=O)CC(c1ccc(OC)c(OC)c1)C2 (centres undefined),3.5,.,.,.,2,
CCOC(=O)c1ccccc1NC(=O)COC(=O)c1ccccc1C(=O)N(C)c1ccccc1,3.4,.,.,.,4,
COc1cccc(/C=c2\sc3nc(-c4cccs4)nn3c2=O)c1OC,-7.8,-44,14,.,-10,
COc1ccc(C2OC(=O)CC2C(=O)NCc2ccc(Cl)cc2)cc1OC (centres undefined),-1.3,.,13,0%,2,
CCCn1c2ccccc2c2cnn(CC(=O)NC3CCCCC3)c(=O)c21,-0.6,.,.,.,4,
CCc1cc(CNC(=O)c2ccc(OC3CCN(CCc4ccccc4)CC3)cc2)on1,-3.8,.,.,.,-3,
CCN(CC)CCN1C(=O)C(O)=C(C(C)=O)C1c1ccc(OC)c(OC)c1 (centres undefined),-3.2,-11,13,1%,-3,
CCOc1ccc(NC(=O)CSc2nnc(-c3ccncc3)n2CC2CCCO2)cc1 (centres undefined),-3.3,-23,-1,-8%,-5,
COc1cc2c(c(O)c1OC)-c1c(cc(OC)c(OC)c1OC)C[C@@H](C)[C@@H](C)C2,3.1,.,.,-3%,-2,
CC(=O)Nc1ccc(NC(=O)C(Sc2ccccc2)c2ccccc2)cc1 (centres undefined),0.8,.,.,-1%,-2,
Cc1ccc(-n2nnc(-c3cccnc3)n2)cc1,1.0,.,.,-6%,3,

# An excerpt; count on the stated rates, not on these rows.
